Bioassay records deposited in PubChem by National Center for Advancing Translational Sciences (NCATS).
Cruzain noTriton – cruzain (T. cruzi) inhibition without detergent. P25779. 200,000 compounds, 2.3% hits. Potency, µM, inactives show max response, negative = inhibition, actives largely listed as inhibitors. purified cruzain, Z-FR-AMC fluorescence, no detergent;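 further: plate controls were enzyme without inhibitor for no effect and buffer without enzyme for full effect; nearly all actives have a fitted effect of over 40% in size; top concentration of the series not given in the record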
Target sequence (P25779 123-467 limits assumed): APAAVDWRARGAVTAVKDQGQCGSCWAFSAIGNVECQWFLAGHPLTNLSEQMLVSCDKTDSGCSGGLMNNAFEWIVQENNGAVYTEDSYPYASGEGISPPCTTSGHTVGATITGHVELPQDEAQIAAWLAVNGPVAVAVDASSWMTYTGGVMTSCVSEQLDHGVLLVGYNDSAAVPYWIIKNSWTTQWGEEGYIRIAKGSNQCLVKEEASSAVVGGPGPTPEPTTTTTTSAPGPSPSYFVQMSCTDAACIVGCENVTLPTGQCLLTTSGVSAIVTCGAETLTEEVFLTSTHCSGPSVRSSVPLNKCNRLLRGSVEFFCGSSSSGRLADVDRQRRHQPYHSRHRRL
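Purified cruzain at 1.5 nM, pre-incubated 15 min with compound at room temperature in 100 mM sodium acetate pH 5.5, 5 mM DTT, 0.00005% Triton X-100. Reaction started with 2 uM Z-FR-AMC; AMC fluorescence increase over 60 s gives rate.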
RE007 growth inh – less growth of the S. pombe RE007 Vpr strain; AID 651644; Potency, µM (titrated, usually from 92.2 µM), inactives show at the highest dose activity change, negative = less growth; S. pombe RE007 Vpr strain, BacTiter-Glo ATP luminescence, 24 h; control for the full effect not named in the record; 360,000 compounds, 0.21% hits; active = well fitted falling curve with a large enough effect; inconclusive = small, poorly fitted or top-dose-only effect; inactive = no such curve, though single readings can be large or run the other way;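 further: on the % scale 0 is the no-effect control and ±100 the full control effect; nearly all actives have a fitted effect of over 50% in size; the assay follows cell death caused by Vpr and the record does not say whether a fall means rescue or toxicity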
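Fission yeast RE007 carrying one integrated HIV-1 vpr copy, seeded at OD 0.01 in PMG+AL medium with 23 nL pinned compound. Grown 24 h at 30 degrees; viability read by BacTiter-Glo luminescence after 5 min.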
MARV entry inh – blocks Marburg virus binding to or entry into cells. Marburg virus pseudotyped entry inhibition, cell reporter; control for the full effect not named in the record; about a third of the inactives were read at about 46 µM. Potency, µM (titrated, usually from 37.8 µM), for the others: top-dose activity change, negative = inhibition, hits mostly inhibitors. 300,000 compounds, 1.8% hits. AID 540276; active = well fitted inhibition curve with a large enough effect; inconclusive = small, poorly fitted or top-dose-only effect, or effect the other way; inactive = flat fitted curve, though single readings scatter; tested in HEK293 cells; about a fifth of its hits are not listed in these tables; further: on the % scale 0 is the no-effect control and ±100 the full control effect; luciferase read-out
Cruzain inh Det – blocks cruzain activity in presence of Triton detergent; purified cruzain, Z-FR-AMC fluorescence, 0.01% Triton; Potency, µM, for the others: max response, negative = inhibition, most hits filed as inhibitors; 200,000 compounds, 0.43% hits;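 further: plate controls were neutral wells for no effect and buffer without enzyme for full effect; nearly all actives have a fitted effect of over 40% in size; top concentration of the series not given in the record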
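Purified cruzain (1.5 nM final) was preincubated with compounds for 15 min at room temperature in 100 mM sodium acetate pH 5.5, 5 mM DTT, 0.01% Triton X-100. Reaction started with 2 uM Z-FR-AMC; AMC fluorescence change over 60 s gave activity.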
LASV entry inh – Lassa virus entry inhibition; Lassa virus pseudotype entry inhibition, cell reporter; control for the full effect not named in the record; Potency, µM (titrated, usually from 37.9 µM), inactives show top-dose activity change, negative = inhibition, actives largely listed as inhibitors; 300,000 compounds, 1.2% hits; AID 540256; active means well fitted inhibition curve with a large enough effect; inconclusive means small, poorly fitted or top-dose-only effect, or effect the other way; inactive means flat fitted curve, though single readings scatter; tested in HEK293 cells; further: on the % scale 0 is the no-effect control and ±100 the full control effect; nearly all actives have a fitted effect of over 50% in size; luciferase read-out
SARS PLpro yeast – blocks SARS-CoV papain-like protease in a yeast assay | S. cerevisiae expressing SARS-CoV PLpro, growth rescue; control for the full effect not named in the record | Potency, µM (series often up to 32.9 µM), without a hit: at the highest dose activity, positive = growth rescue | 330,000 compounds, 0.19% hits; active means well fitted rising curve with a large enough effect; inconclusive means small, poorly fitted or top-dose-only effect; inactive means no such curve, though single readings can be large or run the other way; further: 0% is about no effect; nearly all actives have a fitted effect of over 55% in size; growth read by luminescence after 48 h
2A StopGo – lowers the luciferase signal of an FMDV 2A StopGo reporter; Potency, µM (series often up to 57.9 µM), without a hit: at the highest dose signal change, negative = less light; human cells with a luciferase reporter of 2A StopGo recoding; control for the full effect not named in the record; 410,000 compounds, 1.2% hits; active = well fitted falling curve with a large enough effect; inconclusive = small, poorly fitted or top-dose-only effect; inactive = no such curve, though single readings can be large or run the other way; tested in HEK293T cells; further: on the % scale 0 is the no-effect control and ±100 the full control effect; nearly all actives have a fitted effect of over 45% in size; luciferase light after 4 h
NS1 function inh – inhibitors of influenza NS1 protein function; 270,000 compounds, 0.4% hits; Potency, µM (titrated, usually from 46.1 µM), for inactives: at the highest dose activity, positive = more growth; AID 2326; S. cerevisiae slowed by influenza A NS1, growth recovery by OD600; active means well fitted rising curve with a large enough effect; inconclusive means small, poorly fitted or top-dose-only effect; inactive means no such curve, though single readings can be large or run the other way; further: nearly all actives have a fitted effect of over 50% in size
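Compounds were scored for reversing the slow growth caused by influenza A NS1 in S. cerevisiae, measured by optical density at 600 nm. Assay medium contained 2% galactose at pH 6.0; NS1-free yeast of the same strain were the positive control.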
Numbers without * were called inactive; ? = inconclusive; nt = no result given; & = joins results of further samples; [ ] = dose if it differs, or a comment. Unless noted, the call rests on the fitted dose curve; in most records, active means well fitted curve in the direction sought with a large enough effect; inconclusive means small, poorly fitted or top-dose-only effect, or another doubt; inactive means no such curve, though single readings can be large; an effect the other way counts as inactive or inconclusive. Potency means the concentration at half of the fitted maximal effect. This is a random part of the collection; 4.7% or so of the library scored in one or more.

Screens in order: Cruzain noTriton | RE007 growth inh | MARV entry inh | Cruzain inh Det | LASV entry inh | SARS PLpro yeast | 2A StopGo | NS1 function inh
> Cc1oc(-c2cccc(Cl)c2)nc1CS(=O)(=O)CC(=O)NCc1ccccc1Cl
  12% | nt | ? | -11% | 6%[46.1 µM] | nt | 4% | nt
> O=C(CSc1ncnc2c1oc1ccccc12)NCc1ccc(F)cc1
  -6% | -4% | nt | -3.5% | nt | -3% | -13% | -32%
> CC(=O)c1sc(NC(=O)c2ccco2)nc1-c1ccccc1
  -1% | -6% | nt | -9.4% | nt | 1% | 70%[activator] | -1%
> FC(F)(F)c1cnc(-n2cc[nH]c2=S)c(Cl)c1
  1% | 17% | 2%[46.1 µM] | 10% | ? | 11% | -1% | 11%
> CC(=O)N1c2ccccc2C(C)(C)C2CCC(C)CC21 (stereo not given)
  -6% | -1% | -4% | -4.9% | -10% | -1% | -32% | 3%
> Cc1ccc(C(=O)NC(=S)NNC(=O)CCN2CCOCC2)cc1
  nt | 3% | -11%[46.1 µM] | nt | ? | 1% | -8% | nt
> COc1cccc(-c2nn(C)c3sc(C(=O)NCCCN(C)Cc4ccccc4)cc23)c1
  nt | -3% | ? | nt | ? | 1% | -16% | -2%
> CCC1=Nc2cc(C(=O)NCc3cccnc3)ccc2Sc2ccc(C)cc21
  nt | -14% | ? | nt | -27% | -3% | -6% | 7%
> Cc1cc(Cl)c(S(=O)(=O)N2CCN(c3ccc(F)cc3)CC2)cc1OCC(N)=O
  5% | -3% | 4% | 1.6% | 9% | -8% | ? | -4%
> Cc1ccc(CNC(=O)COC(=O)c2cnccn2)cc1
  0% | -5% | 3% | 2.3% | ? | -3% | -9% | 12%
> CC(C)(C)C(=O)Nc1ccc(C(=O)Nc2cccnc2)cc1
  -10% | -19%[3.69 µM] | -2% | 1.0% | ? | 2% | 22% | 1%
> Cc1ccc(S(=O)(=O)N2CCC(C)CC2)cc1[N+](=O)[O-]
  nt | 9% | 8%[46.1 µM] | nt | ? | 0% | -19% | 8%
> CC(=O)OCC=C1CCC2C3CC(C)C4=CC(=O)CCC4(C)C3C(O)CC12C (stereo not given)
  nt | 2% | ? | nt | ? | nt | -27% | nt
> O=C(NC1CCCCC1)c1ccc2c(c1)OCCO2
  nt | 3% | ? | nt | -9%[46.1 µM] | 4% | 35%[activator] | 7%
> CCc1noc(C)c1C(=O)N1CCCSC1=Nc1ccccc1OC
  nt | -4% | -29% | nt | -10% | -1% | -20% | nt
> CCOC(=O)C1CCC(CN(Cc2ccccc2)S(=O)(=O)c2ccc(Br)cc2)CC1 (stereo not given)
  -2% | nt | nt | 1.8% | 2%[46.1 µM] | nt | -14% | nt
> CSCCC(NC(=O)c1ccccc1)C(=O)NCCc1ccccc1 (stereo not given)
  nt | 6% | ? | nt | -9%[46.1 µM] | 1% | 22% | -13%
> COc1ccc(Cl)cc1NC(=O)CCCNC(=O)c1ccc(Cl)cc1
  nt | -13% | nt | nt | nt | 8% | 1% | -14%
> Cc1ncc(CO)c(CO)c1O
  -1% | 9% | nt | -2.2% | nt | nt | -23% | nt
> O=C(NCCc1ccccc1)c1cccc(N2CCCC2=O)c1
  nt | 6% | nt | nt | nt | -3% | -42% | 9%
> CN(CCOc1ccc(Cl)cc1)C(=O)c1cc(-c2ccco2)nc2ccccc12
  nt | 6% | ? | nt | ? | 4% | 35µM* | nt
> CSc1nc(-c2ccccc2)nc(SC)c1C(C)=O
  -3% | 11% | 7% | -1.1% | 18% | 18% | -20% | 0%
> CCN(c1ccccc1)S(=O)(=O)c1ccc(C(=O)Nc2c(C)n(C)n(-c3ccccc3)c2=O)cc1
  nt | 12% | 6%[46.1 µM] | nt | 0%[46.1 µM] | 5% | -21% | nt
> CCc1ccc(-c2nc3c(c(SCc4ccccc4)n2)Cc2c(CO)cnc(C)c2O3)cc1
  22% | nt | nt | -1.7% | 13%[46.1 µM] | nt | 5% | nt
> COc1ccc(N(C(=O)c2ccc(S(=O)(=O)N3CCOCC3)cc2)C2C=CS(=O)(=O)C2)cc1 (stereo not given)
  6% | 2% | -2%&2% | 2.7% | 20% | 9% | 8% | -6%
> Cc1nc2ncnn2c(N2CCN(C(=O)c3cccc(F)c3)CC2)c1C
  -4% | -4% | -7% | -3.0% | -1% | 1% | -20% | -2%
> Cc1noc(C)c1C(c1ccccc1)c1ccccc1
  -5% | 4% | 23% | -7.8% | 20% | -18% | -18% | 7%
> CCC(=O)c1ccc2c(c1)OCCO2
  nt | -5% | nt | nt | nt | 0% | 6% | 2%
> CN1CCN(c2ncc(C=O)s2)CC1
  nt | 4% | 10%[46.1 µM] | nt | 6%[46.1 µM] | 1% | 17% | ?
> COc1cc(OC)cc(C(=O)NC(=S)N2CCN(c3ccc(C(F)(F)F)cc3[N+](=O)[O-])CC2)c1
  -11% | -5% | -7%[46.1 µM] | -4.0% | ? | 3% | 0% | 12%
> CC(C)c1ccc(Nc2ncnc3onc(-c4ccc(F)cc4)c23)cc1
  -7% | nt | nt | -14% | ? | nt | -15% | nt
> COC(=O)COc1ccc(S(=O)(=O)NCc2ccccn2)cc1
  nt | -12% | -1%[46.1 µM] | nt | 0%[46.1 µM] | 15% | -2% | -6%
> CC1CCc2c(sc(NC(=O)COC(=O)c3ccc(O)cc3)c2C#N)C1 (stereo not given)
  nt | -11% | 20%[46.1 µM] | nt | 16% | -1% | 15% | nt
> COc1ccc(Nc2nc(C)cc(C)c2C(N)=O)cc1
  0% | -8% | ? | 9.4% | 3% | 7% | 8% | 1%
> Cc1ccc(-n2ncc3c(N4CCCCCC4)ncnc32)cc1C
  16% | nt | nt | -0.1% | 22%[46.1 µM] | nt | 56µM* | nt
> O=C(NC1CC1)c1cc(-c2ccco2)nc2ccccc12
  nt | 10% | 4%&4%[46.1 µM] | nt | -6% | 2% | -4% | 1%
> Cc1ccc(-c2csc3nc(-c4ccncc4)[nH]c(=O)c23)cc1
  nt | 11% | nt | nt | nt | 1% | -26% | 2%
> CS(=O)(=O)Nc1ccc(C(=O)NCc2ccc3c(c2)OCO3)cc1
  -9% | -6% | -4% | -2.7% | -2% | 0% | 5% | 2%
> COc1ccc(Cl)cc1NC(=O)CSc1nc2c([nH]c3ccccc32)c(=O)n1-c1ccccc1
  -3% | nt | nt | -2.4% | ? | nt | -25% | nt
> NS(=O)(=O)c1ccc(NC(=O)Cc2cccs2)cc1
  nt | 8% | 7% | nt | 11% | 7% | -9% | 0%
> COCCNC(=O)CNC(=S)N(CCCN1CCOCC1)Cc1cccs1
  nt | 2% | 7%[46.1 µM] | nt | nt | 2% | -8% | 6%
> CCn1c(CCCOc2ccc(Cl)cc2Cl)n[nH]c1=S
  nt | 5% | 10%[46.1 µM] | nt | 1%[46.1 µM] | -1% | 6% | 4%
> COC(=O)c1ccc(COC(=O)Cc2n[nH]c(=O)c3ccccc23)cc1
  nt | 7% | -28%[46.1 µM] | nt | ? | -4% | ? | 5%
> CCCCN(C(=O)CCC(=O)Nc1cc(C)on1)C(C(=O)NC1CCCC1)c1ccc(OC)cc1 (stereo not given)
  nt | 0% | -29%[46.1 µM] | nt | nt | -1% | -5% | 6%
> CCc1nnc(NC(=O)COc2ccc([N+](=O)[O-])cc2)s1
  nt | 15% | -12%[46.1 µM] | nt | 3%[46.1 µM] | -4% | 3% | nt
> NN=C(c1cccc([N+](=O)[O-])c1)c1cccc([N+](=O)[O-])c1
  nt | 11% | -1%[46.1 µM] | nt | 2% | nt | -1% | nt
> O=C(COc1ncnc2ccc(Br)cc12)NCc1ccc2c(c1)OCO2
  -5% | -15% | -16% | -1.4% | -17% | -3% | -7% | -12%
> O=C(O)/C=C/c1cnc2ccccc2c1
  nt | 1% | 8%[46.1 µM] | nt | -3% | 0% | 49%[activator] | nt
> O=C(CCCCn1c(=O)c2ccccc2n(CC(=O)Nc2cccc(F)c2)c1=O)NCc1ccccc1Cl
  15% | nt | ? | -1.2% | -13%[46.1 µM] | nt | ? | nt
> COc1ccc(-n2c(Cc3cccn3C)nnc2SCC(=O)Nc2ccc3c(c2)OCCO3)cc1
  14% | -4% | -2% | -4.2% | nt | 16% | -13% | ?
> Cc1ccccc1CN1CCN(C(=O)c2cc(-c3ccncc3)nc3ccccc23)CC1
  nt | 14% | ? | nt | ? | 1% | ? | -3%
> Fc1ccc(-n2cc(CNCCc3ccccn3)c(-c3ccccc3Cl)n2)cc1
  nt | -6% | ? | nt | ? | 3% | -14% | 7%
> CN1C(=O)/C(=N\OC(=O)c2cccc3ccccc23)c2ccccc21
  7.9µM* | -20% | 5% | 3.2µM* | ? | -34% | nt | -123%
> COc1cccc2c1OCC(C(=O)NCc1ccc(Cl)cc1Cl)=C2
  -2% | 10% | -3% | -3.8% | -12% | -22% | 13% | -11%
> Cc1oc(-c2ccccc2F)nc1CN1CCC(C(=O)NCc2cccnc2)CC1
  -13% | 11%[3.69 µM] | 1% | 1.1% | 6% | 0% | -5% | 10%
> Cc1ccc(C)c(NC(=O)Cn2nc(-c3ccccc3)nc2-c2ccccc2)c1
  -11% | 2% | -1% | 11% | -3% | 2% | -13% | -7%
> COc1ccc(/C=N/Nc2cc(N3CCCC3)nc(N3CCCC3)n2)cc1
  nt | -6% | ? | nt | 3.2µM* | -7% | ? | nt
> CCOc1ccc(-c2nn(-c3ccccc3)cc2/C=C2\SC(=S)N(C3CCS(=O)(=O)C3)C2=O)cc1 (stereo not given)
  7.9µM* | -8% | -11% | -12% | -9% | 2% | 0% | 12%
> Cc1cc(NS(=O)(=O)c2ccccc2)cc(Cl)c1O
  1% | -6% | -8%&-8% | -1.0% | 19% | 1% | 19% | -7%
